# VACV Venus inh – qHTS for Stage-Specific Inhibitors of Vaccinia Orthopoxvirus: Venus Reporter Primary qHTS. Vaccinia virus Venus reporter expression, fluorescence. Potency, µM (highest dose often 36.5 µM), without a hit: at the top dose activity change, negative = inhibition, hits mostly inhibitors. actives 0.46% (n = 330,000); active means well fitted inhibition curve with a large enough effect; inconclusive means small, poorly fitted or top-dose-only effect; inactive means no such curve, though single readings can be large or run the other way; tested in A549 cells; note: nearly all actives have a fitted effect of over 30% in size; inactives centre near -10
# VACV mCherry inh – qHTS for Stage-Specific Inhibitors of Vaccinia Orthopoxvirus: mCherry Reporter Primary qHTS; Vaccinia virus mCherry reporter infection, fluorescence; about a quarter of the inactives have no number; Potency, µM (series often up to 36.5 µM), for the others: top-dose activity change, negative = inhibition, actives largely listed as inhibitors; actives 0.63% (n = 310,000); AID 720579, 2013; active = well fitted inhibition curve with a large enough effect; inconclusive = small, poorly fitted or top-dose-only effect; inactive = no such curve, though single readings can be large or run the other way; tested in A549 cells; note: nearly all actives have a fitted effect of over 35% in size; inactives centre near -10
# * = called active by the depositor; i = inactive; ? = inconclusive; nt = no result given; [ ] = dose if it differs, or a comment. % is set by controls: 0 for no effect and ±100 for the full control effect; potency is the fitted concentration of half-maximal effect.
SMILES,VACV Venus inh,VACV mCherry inh
C#CCNC(=O)C1=C[C@H](c2cn(C(C)=O)c3ccccc23)[C@@H](CCCO)[C@H](OCC)O1,-7%,7%
CC1CC(C)CN(C(=O)Cn2c(=O)c3cccn3c3cccnc32)C1 (stereo not drawn),6%,1%
O=C(NC(=S)N(CCCCO)C1CCCCC1)c1sc2ccccc2c1Cl,?,-27%
CCc1ccc(CN(C)C(=O)c2cc(COc3c(F)cccc3F)on2)cc1,10%,-3%
Cc1ccc(CNC(=O)Cn2c(SCC(=O)Nc3ccc(F)cc3)nc3ccccc32)cc1,-12%,-25%
O=C(O)C1=C2C(=O)Nc3cccc(c32)C2(C1)C(=O)Nc1ccccc12 (stereo not drawn),-5%,i
CCN(C[C@H]1N[C@@](CC)(C(=O)OC)[C@H]2C(=O)N(C)C(=O)[C@@H]12)S(=O)(=O)c1ccc(OC(F)(F)F)cc1,0%,i
COc1ccc2nc3sc(C(=O)N4CCN(C)CC4)cc3cc2c1,-21%,?
CC(Sc1ccc(S(=O)(=O)N2CCCCC2)cn1)C(N)=O (stereo not drawn),-7%,-18%
Cc1ccc(Cc2c(C3CCCCC3)nc3ccc(Cl)cn23)cc1,1%,22%
NC(=O)c1ccsc1NC(=O)COC(=O)CSc1ccc(Cl)cc1,3%,-3%
O=C(N/N=C/c1ccccc1C(=O)O)C(=O)N1CCCCC1,-14%,-7%
COc1cccc(NC(=O)C2CCN(c3nnc(C)c4c(C)n(-c5ccccc5)nc34)CC2)c1,-30%,?
Cc1ccc(SCc2nn(C)c(Cl)c2C=O)cc1,6%,1%
CC(O)c1ccc2c(c1)OCCOCCN(C)CCOCCO2 (stereo not drawn),-8%,nt
CCCCOc1ccc(S(=O)(=O)N2CCN(c3ccccc3OCC)CC2)cc1,0%,-14%
COc1ccc(CN(CC(=O)NCc2ccc(F)cc2)C(=O)c2ccco2)cc1,-11%,-11%
O=C(CSc1nc(-c2ccccc2Cl)ns1)Nc1ccc2c(c1)OCO2,-26%,-31%
Cc1ccc(NS(=O)(=O)c2cc3c(cc2C)NC(=O)CO3)cc1,-23%,-11%
CCOC(=O)c1cnc2c(ccc3ccccc32)c1NCCCN(C)C,-26%,-10%
CCSCc1nnc(SCC(=O)Nc2cccc(C(C)=O)c2)n1C,-4%,1%
CCOc1ccc(NC(=O)CN(C)C(=O)c2ccc3nc(CC)c(CC)nc3c2)cc1OCC,-11%,-20%
O=C(NCCN1C(=O)S/C(=C\c2ccccc2F)C1=O)C1CC(=O)N(Cc2ccccc2)C1 (stereo not drawn),-15%,-23%
CCN(CC)CCC(=O)O[C@H]1CC[C@]2(C)C3CC[C@@]4(C)C(CC[C@]4(C)O)C3CC[C@H]2C1 (stereo partly drawn),?,-13%
Cc1ccc(N2CCN(C(=O)c3cn(C)c4ccc(S(=O)(=O)N5CCC(C)CC5)cc4c3=O)CC2C)cc1 (stereo not drawn),?,?
CSc1cccc(NC(=O)c2cnccn2)c1,-35%,nt
CCCC(=O)N(c1ccc2oc(=O)sc2c1)S(=O)(=O)c1ccccc1,-23%,nt
CC(OC(=O)CCc1c[nH]c2ccccc12)C(=O)c1ccccc1 (stereo not drawn),-4%,i
O=C(CN1CCN(S(=O)(=O)c2ccc(Br)cc2)CC1)N/N=C/c1ccc(Br)s1,?,?
CCn1c(=N)n(CCO)c2ccccc21,-2%,nt
Cc1cc(C)n(S(=O)(=O)c2ccccc2)n1,-1%,i
NC(=O)c1ccc(=O)n(C2OC(CO)C(O)C2O)c1 (stereo not drawn),-4%,-15%
COC(=O)N(C)C[C@@H]1OCc2cn(nn2)CCCC(=O)N([C@H](C)CO)C[C@H]1C,-6%,20%
COc1ccccc1C(CNC(=O)c1ccc(-c2ccccc2Cl)o1)N1CCCC1 (stereo not drawn),-24%,?
O=C(NC(=S)Nc1ccccc1F)c1ccc(Br)o1,-14%,-2%
Cc1cccc(C)c1OCCCCCNCCO,-18%,-19%
COc1ccc(NC(=O)CSc2ncc3c(n2)-c2ccccc2N(Cc2ccc(C)cc2)S3(=O)=O)cc1Cl,-14%,-5%
C[C@@H]1CN([C@H](C)CO)C(=O)c2cc(Br)cnc2O[C@H]1CN(C)C(=O)Nc1ccc2c(c1)OCO2,-2%,-14%
CC(=O)N1c2nc(C(C)C)nn2C2(CCCCC2)[C@@H]2CCCC[C@@H]21,-10%,-13%
Cc1c(C(=O)OCC(=O)NCc2ccc3c(c2)OCO3)cccc1[N+](=O)[O-],-15%,i
CCCC(CC)Sc1nc2c([nH]1)c(=S)n(C)c(=O)n2C (stereo not drawn),-18%,?
COc1ccc(C2C(Oc3ccccc3C)C(=O)N2Cc2ccc(F)cc2)cc1OC (stereo not drawn),-34%,nt
C/C(N)=C(/C#N)C(=O)CSc1ccc2c(c1)OCCO2,-15%,nt
O=S1(=O)[C@H]2C[C@@H]3C=C[C@@]2(CN1Cc1ccc(Cl)cc1)O3,?,?
N#Cc1ncc(Br)cn1,-9%,-22%
O=C(NCc1ccc2c(c1)OCO2)C1CCCN(S(=O)(=O)c2cccnc2)C1 (stereo not drawn),-21%,i
COc1cccc(CN2CCCC(c3nc(C)ncc3-c3ccc(F)cc3)C2)c1OC (stereo not drawn),-17%,i
Cc1ccc(C(=O)N/C(=C\c2cccs2)C(=O)N2CCCCCC2)cc1,-27%,nt
CCN1C[C@@H]2[C@@H]3C(=O)N(C)C(=O)[C@@H]3[C@](C)(C1=O)N2C(=O)c1ccc(F)cc1,-3%,i
O=C(CSc1ccc(Br)cc1)N1CCN(C(=O)c2ccco2)CC1,-12%,-17%
# (continued)
SMILES,VACV Venus inh,VACV mCherry inh
Cc1ccc(NC(=O)COC(=O)Cc2ccsc2)c(C)c1,-12%,i
CCCN1CC[C@@H]2c3cc(O)ccc3CC[C@@H]21,-7%,i
Fc1ccc(NC(=S)N2CCCCC2)cc1,-7%,-1%
CCC/C=C/c1ccc(CN2C(C(C)C)C(=O)N(Cc3cn(CC4CCCCC4)nn3)CCS2(=O)=O)cc1 (stereo not drawn),?,?
COc1ccc(-c2csc(C(O)c3ccc(F)cc3)n2)cn1 (stereo not drawn),-1%,4%
Cc1ccc(N2C(=O)c3n[nH]c(C)c3C2c2ccccc2Cl)cc1 (stereo not drawn),-5%,-17%
CCc1cnc2c(c1SCC(=O)NCc1ccccc1)c(=O)n(C)c(=O)n2C,-2%,-11%
CCOC(=O)C1(O)CSc2nc3sc(C(=O)O)c(C)c3c(=O)n21 (stereo not drawn),-7%,-18%[1.46 µM]
O=C(Nc1nnc(-c2ccccc2SCc2ccccc2F)s1)Nc1ccccc1F,0%,i
O=C(COC(=O)c1ccc(Cl)nc1)NNC(=O)c1ccc(Cl)cc1,-3%,-30%

# Already shown: entries from further up.
SMILES,VACV Venus inh,VACV mCherry inh
O=S1(=O)[C@H]2C[C@@H]3C=C[C@@]2(CN1Cc1ccc(Cl)cc1)O3,?,?
N#Cc1ncc(Br)cn1,-9%,-22%
O=C(NCc1ccc2c(c1)OCO2)C1CCCN(S(=O)(=O)c2cccnc2)C1 (stereo not drawn),-21%,i
COc1cccc(CN2CCCC(c3nc(C)ncc3-c3ccc(F)cc3)C2)c1OC (stereo not drawn),-17%,i
Cc1ccc(C(=O)N/C(=C\c2cccs2)C(=O)N2CCCCCC2)cc1,-27%,nt
CCN1C[C@@H]2[C@@H]3C(=O)N(C)C(=O)[C@@H]3[C@](C)(C1=O)N2C(=O)c1ccc(F)cc1,-3%,i
O=C(CSc1ccc(Br)cc1)N1CCN(C(=O)c2ccco2)CC1,-12%,-17%
Cc1ccc(NC(=O)COC(=O)Cc2ccsc2)c(C)c1,-12%,i
CCCN1CC[C@@H]2c3cc(O)ccc3CC[C@@H]21,-7%,i
Fc1ccc(NC(=S)N2CCCCC2)cc1,-7%,-1%
CCC/C=C/c1ccc(CN2C(C(C)C)C(=O)N(Cc3cn(CC4CCCCC4)nn3)CCS2(=O)=O)cc1 (stereo not drawn),?,?
COc1ccc(-c2csc(C(O)c3ccc(F)cc3)n2)cn1 (stereo not drawn),-1%,4%
Cc1ccc(N2C(=O)c3n[nH]c(C)c3C2c2ccccc2Cl)cc1 (stereo not drawn),-5%,-17%
CCc1cnc2c(c1SCC(=O)NCc1ccccc1)c(=O)n(C)c(=O)n2C,-2%,-11%

# Remaining list, next part:
SMILES,VACV Venus inh,VACV mCherry inh
O=C1c2cccc3cccc(c23)C(=O)N1CC1CCN(CC(O)COCc2ccc3c(c2)OCO3)CC1 (stereo not drawn),-17%,-5%
Cc1cc(C)c2ccc(NN)nc2c1O,-20%,i
CCc1nc(SCC(=O)Nc2cccc3ccccc23)[nH]c(=O)c1C,7%,-15%
Cc1c(Cl)cccc1NC(=O)CSc1ncc(S(=O)(=O)c2ccc(C(C)C)cc2)c(=O)[nH]1,7%,8%
O=C1c2sccc2-c2cccc3cccc1c23,1%,i
CC(O)CN(Cc1ccc(Cl)cc1)CC(C)O (stereo not drawn),-8%,i
CC(C)[C@H](NC(=O)c1ccccc1)C(=O)N1CCc2ccccc21,-2%,-10%
Cc1nc(-c2cccs2)ccc1C(=O)O,-11%,i
CN(Cc1cccc(Cl)c1Cl)C(=O)c1cc(S(=O)(=O)N2CCOCC2)ccc1F,10%,-10%
O=C(COc1ccccc1)NCC(=O)N/N=C/c1ccccc1,-1%,-6%
CCOC(=O)C1(NC(=O)C2(NC(=O)CN3C(=O)c4ccccc4C3=O)CCCC2)CCCC1,-5%,-11%
CCCCCCCCCCOC(=O)Cn1c(COc2ccc(Cl)cc2)[n+](C)c2ccccc21,10µM*,?
CC(O)C(NC=C1C(=O)OC(C)(C)OC1=O)C(=O)O (stereo not drawn),-23%,-8%
CC1(C(=O)Nc2ccc(F)cc2F)CCN1C(=O)Cc1ccc(Cl)cc1Cl (stereo not drawn),-13%,i
CSc1ccc(C=O)cc1,-13%,0%
COc1ccc(NC(=O)c2nnn(CC(=O)Nc3cc(C)cc(C)c3)c2N)c(OC)c1,-5%,-13%
O=C(CCCNS(=O)(=O)c1cccc2nsnc12)NC1CCCCC1,-13%,nt
CCOC(=O)Cc1nn(Cc2ccccc2)c(=O)c2ccccc12,-14%,-25%
COc1ccc(-n2c(SCC3OCCO3)nc3c(sc(=S)n3-c3ccccc3)c2=O)cc1OC,-16%,-3%
CC(C)(Oc1ccc(Cl)cc1)C(=O)NCC(c1cccs1)N1CCOCC1 (stereo not drawn),-12%,-18%
Cc1ccccc1-c1nc(CSc2nc3c(c(=O)[nH]2)CCC3)c(C)o1,-17%,-3%
O=c1oc2ccccc2c(NCCO)c1[N+](=O)[O-],-7%,i
COc1ccc(CCNC(=O)COC(=O)/C=C/c2ccc3c(c2)OCO3)cc1OC,-8%,-18%
Cn1nnc2c[n+](CC(=O)c3ccc(Cl)cc3)cc(Br)c21,-21%,?
COc1ccccc1NC(=O)C1=C(C)Nc2nc(SCc3ccccc3Cl)nn2C1c1ccccn1 (stereo not drawn),-8%,i
CC(C)(C)c1ccc(SC2=C[C@@]3(O)CC[C@@H](O)[C@@](Sc4ccc(C(C)(C)C)cc4)(C2=O)[C@H]3O)cc1,?,?
CCOC(=O)c1sc2nc(CC(C)C)c3c(c2c1N)CCC3,-25%,-19%
Cc1ccc(S(=O)(=O)N2CCCCC2)cc1C(=O)NCCC1=CCCCC1,-8%,i
CCc1nc2c(OCc3ccc(C(=O)N(C)C)cc3)cccn2c1N(C)C(=O)c1ccc(C)cc1,-6%,28%
CCOC(=O)c1cnn(-c2ccccc2)c1NC(=O)C(F)(F)C(F)(F)C(F)(F)F,-15%,0%
O=C(c1ccc2c(c1)OCO2)C1CCCN(Cc2c(F)ccc(F)c2F)C1 (stereo not drawn),-12%,-24%
CCOC(=O)c1c(NC(=O)CN2CCCCC2)sc2c1CCN(C(=O)OCC)C2,-29%,?
O=C(O)CN1CCCCC1,1%,-3%
N#CCc1ccc(Oc2ccc([N+](=O)[O-])cn2)cc1,-6%,-13%
Cc1cc(=O)n2ccsc2n1,-15%,-17%
CN(CC(=O)Nc1ccccc1C(F)(F)F)C(=O)c1cc2c(s1)CCCCC2,-14%,-17%
CCOC(=O)C1CCN(C(=O)NS(=O)(=O)c2ccc(C)cc2)CC1,-10%,i
CN(C)S(=O)(=O)c1ccc(N2CCCC2)c(C(=O)N2CCN(c3ccc([N+](=O)[O-])cc3)CC2)c1,-7%,-12%
O=C(NCc1ccc(F)cc1)C1CCN(C(=O)c2ccc(-n3ccc4ccccc43)s2)CC1,-17%,i
CSc1ccc(CCNC(=O)Cn2c(C)c3cnn(-c4ccccc4)c(=O)c3c2C)cc1,-5%,-9%
O=S1(=O)CCN(C2CCCCCC2)CC1,-17%,i
Cc1ccc(C)c(N2CCN(C(c3ccccc3)c3nnc(-c4ccccc4F)o3)CC2)c1 (stereo not drawn),-1%,-2%
COc1ccccc1C1CC(=O)NC(C)=C1C(=O)OC(C)C (stereo not drawn),-23%,-23%
Cc1ccc(S(=O)(=O)N2CCC(C(=O)N/N=C/c3cccn3C)CC2)cc1,0%,-15%
COc1ccccc1CNc1nc(Nc2ccccc2-n2cccn2)c2sccc2n1,-3%,0%
CCOc1ccc(C(c2c(C)[nH][nH]c2=O)c2c(C)[nH][nH]c2=O)cc1OC,-20%,i
Cc1oc2ncn(CC(C)C)c(=O)c2c1C(=O)NCCCN(C)Cc1ccccc1,-16%,i
O=C(NC(=O)N1CCN(c2ccc(F)cc2)CC1)c1ccccc1,-10%,-20%
CCOP(=O)(Cc1ccccc1)OCC,-24%,i
CC(=O)OCC1OC(n2c3c(cc(C#N)c2=S)CCCC3)C(OC(C)=O)C(OC(C)=O)C1OC(C)=O (stereo not drawn),0%,i

# Compound activity from PubChem BioAssay.
